High-throughput results: PubChem, several laboratories
PABP polyA inh – PABP poly(A) RNA binding inhibitors, primary screen, biochemical, fluorescence polarization, uHTS; Polyadenylate-binding protein 1 (Homo sapiens), P11940; inhibition, % at 35 µM; 1% of 290,000 active;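 active means 50% or more with normal probe brightness, or confirmed in later tests; about a fifth of its hits are not listed in these tables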;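 further: calls also rest on retests at 20 µM and on dose response follow-up; controls were probe without protein and protein plus probe with vehicle; some compounds called inactive have numbers as strong as hits; many hits fall short of the cut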
Target sequence (P11940 whole entry, looked up): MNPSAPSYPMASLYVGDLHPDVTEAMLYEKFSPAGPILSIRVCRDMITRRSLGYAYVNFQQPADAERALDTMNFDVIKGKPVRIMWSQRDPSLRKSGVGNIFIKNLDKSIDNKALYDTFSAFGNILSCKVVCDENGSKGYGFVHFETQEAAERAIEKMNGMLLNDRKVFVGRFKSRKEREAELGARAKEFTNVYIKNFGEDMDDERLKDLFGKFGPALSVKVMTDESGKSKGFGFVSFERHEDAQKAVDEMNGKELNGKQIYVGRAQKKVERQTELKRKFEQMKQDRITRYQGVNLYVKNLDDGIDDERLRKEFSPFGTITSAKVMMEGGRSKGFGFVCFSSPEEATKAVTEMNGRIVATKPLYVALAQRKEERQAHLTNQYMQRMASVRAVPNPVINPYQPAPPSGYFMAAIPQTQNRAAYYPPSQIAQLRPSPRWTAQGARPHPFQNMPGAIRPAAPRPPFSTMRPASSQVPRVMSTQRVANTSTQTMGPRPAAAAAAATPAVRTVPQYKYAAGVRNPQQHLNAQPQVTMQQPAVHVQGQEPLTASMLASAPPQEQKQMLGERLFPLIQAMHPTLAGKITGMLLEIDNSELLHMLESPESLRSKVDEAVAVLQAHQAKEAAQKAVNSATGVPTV
MT1-MMP act inh – blockers of MT1-MMP proenzyme processing, primary screen, HT1080 RFP-PRO-GFP cells, GFP/RFP fluorescence. Matrix metalloproteinase-14 (Homo sapiens), P50281. GFP/RFP ratio fluorescence, overnight; percent of plate control window, DMSO zero. GFP/RFP ratio change, % at 20 µM. 0.061% of 360,000 active. AID 651647, 2012;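 active means GFP/RFP ratio change of at least 30% with cell ATP level not reduced by more than half and red fluorescence within 50% of control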; further: strong numbers were not always called active
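Test system: HT1080 RFP-PRO-GFP cells; Benchmarks: DMSO and RFP-L50D-GFP cell wells; Timing: cells overnight before dosing, compound overnight, 37 °C, 5% CO2; Compound: one 20 µM compound dose with 1% DMSO; Read-out: GFP/RFP fluorescence ratio.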
HIV Env fusion – inhibitors of HIV-1 Env-driven cell-cell fusion, primary screen, HeLa-JRFL effector, CEM21 target cells, luciferase. 1.1% of 360,000 active. inhibition, % at 12.3 µM;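 active means mean replicate inhibition score of at least 50 and every replicate individually at or above 50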;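 further: 0% = plate neutral controls and 100% = maraviroc near 300 nM; one replicate is shown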
Yeast UUG start – modulators of yeast start codon fidelity, primary screen, whole organism, S. cerevisiae, single point, plate reader. S. cerevisiae UUG-firefly luciferase reporter, luminescence/redox ratio. 0.13% of 350,000 active. activity score, % at 18.7 µM. AID 602363, 2012;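 active means replicate mean at a twofold rise or more, about +100% in these data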;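 further: firefly luciferase made from a UUG start codon reports start codon fidelity; reporter light over untreated wells divided by growth signal over untreated wells; some hits fall short of that in this replicate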
Rce1 inhib – yeast Rce1p protease inhibitors, primary screen, biochemical, fluorescence, cell-free homogeneous | CAAX prenyl protease 2 (Saccharomyces cerevisiae (strain ATCC 204508 / S288c)), Q03530 | yeast membranes, quenched prenylated peptide cleavage fluorescence | calls only | 0.27% of 290,000 active | AID 2563, 2010;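 active means fall in fluorescence gain of 50% or more versus controls, with final raw signal at or below 3038400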;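 further: plate controls were neutral control wells for no effect and wells lacking membranes for full effect; tested at 10 µM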
Target sequence (Q03530 whole entry, looked up): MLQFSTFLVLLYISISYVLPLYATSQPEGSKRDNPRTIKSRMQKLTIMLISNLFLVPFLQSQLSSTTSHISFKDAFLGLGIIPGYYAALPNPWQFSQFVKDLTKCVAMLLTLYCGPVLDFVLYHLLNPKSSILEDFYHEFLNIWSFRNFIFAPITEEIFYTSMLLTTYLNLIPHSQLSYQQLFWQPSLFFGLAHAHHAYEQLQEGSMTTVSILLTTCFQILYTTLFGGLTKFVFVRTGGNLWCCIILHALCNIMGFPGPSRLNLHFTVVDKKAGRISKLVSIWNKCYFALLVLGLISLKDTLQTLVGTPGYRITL
eIF4H inh – human eIF4H binding inhibitors, primary screen, translation initiation inhibitor project, biochemical, uHTS, fluorescence polarization. Eukaryotic translation initiation factor 4H (Homo sapiens), Q15056. eIF4H fluorescence polarization binding assay. inhibition, % at 35 µM. 0.94% of 290,000 active;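 active means 50% or more with normal probe brightness, or confirmed in later tests; about a fifth of its hits are not listed in these tables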;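 further: calls also rest on retests at 20 µM and on dose response follow-up; 0% = protein and probe with vehicle and 100% = probe without protein; strong numbers were not always called active; many hits fall short of the cut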
CSC inhib – cancer stem cell viability inhibitors, primary screen, luminescence; cancer stem cell-like cells viability; inhibition, % at 7.5 µM; 1.1% of 300,000 active;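 active means mean at 75% or more and at least half the replicates too; tested in HMLE shEcad cells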;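 further: 0% = median of negative and 100% = median of positive control wells; the first replicate is given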
eIF4H inh retest – further read-out of eIF4H inh, marked with its call; inhibition, %; compound at 20 µM; confirmation average;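 mean of two retest wells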
PABP polyA inh retest – also measured in PABP polyA inh; calls as there; inhibition, %; compound at 20 µM; confirmation repeats;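 mean of two retest wells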
MT1-MMP act inh RFP – further read-out of MT1-MMP act inh, marked with its call; RFP signal change, %; measured here: RFP expression control read;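 0 = vehicle wells; hits needed this value within 50% of zero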
The depositor's hits bear a star; i = inactive; . = no result given; + = active, no number.

SMILES	PABP polyA inh	MT1-MMP act inh	MT1-MMP act inh RFP	HIV Env fusion	Yeast UUG start	Rce1 inhib	eIF4H inh	CSC inhib	others
Cc1ccc(NC(=S)NC2CCCCC2)cc1S(=O)(=O)N(C)C	11	-5	0	10	-25	.	-6	6
O=C(C(Sc1ccccc1)c1ccc(Br)cc1)N1CCOCC1 (stereo not given)	-6	-9	-5	2	6	i	0	-9
COc1cccc(-c2c(C(=O)N/N=C/c3ccc(C)o3)nnn2-c2nonc2N)c1	5	0	0	-2	-13	i	-14	-12
O=S(=O)(c1cccs1)N1CCN(S(=O)(=O)c2cccs2)CC1	4	0	3	8	.	i	7	-7
COc1ccc(C(=O)CSc2nnc(CNC(=O)c3ccc(S(=O)(=O)N(C)C)cc3)o2)cc1	-7	4	1	-26	-2	i	-13	-6
NCc1cc2c3c(c1)CCCN3CCC2	115*	-3	2	11	-10	i	93*	-4
O=C(Nc1ccc(F)cc1F)c1c(C(F)(F)F)ccnc1Oc1ccc(Cl)cc1	4	-5	-2	5	-9	i	4	.
CCN(CC)S(=O)(=O)c1ccc(N2CCOCC2)c(NC(=O)C2CC2)c1	.	-5	2	.	3	i	.	-5
COc1ccc(CN2CCNC(=O)C2CC(=O)NCCc2cnccn2)cc1C (stereo not given)	7	2	5	.	-5	i	14	.
COc1ccc(-c2ccc(C(=O)NCCc3ccccc3)c3occc23)c(C)c1	.	-8	-21	-15	-27	.	.	.
O=C(CSc1nnc(SCC(=O)c2ccco2)s1)c1ccco1	32	3	4	.	-8	i	42	-20
O=C(c1cccc2ccccc12)N1CCN(c2ccccc2F)CC1	-2	1	7	-57	.	i	6	-1
O=[N+]([O-])c1ccc(-c2ccn[nH]2)o1	-5	1	5	-9	.	i	77	-3	eIF4H inh retest=-2;PABP polyA inh retest=-3
O=C(O)c1ccccc1C(=O)Nc1nc(-c2ccc3ccccc3c2)cs1	14	3	2	-18	-19	i	-8	9
CC1CC(C)CN(C(=O)COC(=O)Cc2ccc(Cl)cc2)C1 (stereo not given)	2	0	2	13	3	i	6	4
C=CCC(NC(=O)c1ccc(C#N)cc1)C(=O)NCCC (stereo not given)	.	-2	0	-22	-10	.	.	-14
Cc1c(/C=C/C(=O)c2cccs2)cnn1C	-10	-2	0	-99	-20	i	4	-4
O=S(=O)(c1ccccc1)N1CCC(O)(CSc2ccccc2)CC1	4	-1	-18	21	3	i	11	-6
COc1cc(C(CC(=O)N2CCOCC2)c2c(OC)cc(OC)c3ccc(=O)oc23)cc(OC)c1OC (stereo not given)	1	-2	-3	13	-20	i	-7	7
CCOC(=O)c1c(O)c2c(n(Cc3ccco3)c1=O)CCCC2	0	-2	1	.	8	i	-2	-11

Continued (4 carried over from the part before).
SMILES	PABP polyA inh	MT1-MMP act inh	MT1-MMP act inh RFP	HIV Env fusion	Yeast UUG start	Rce1 inhib	eIF4H inh	CSC inhib	others
Cc1c(/C=C/C(=O)c2cccs2)cnn1C	-10	-2	0	-99	-20	i	4	-4
O=S(=O)(c1ccccc1)N1CCC(O)(CSc2ccccc2)CC1	4	-1	-18	21	3	i	11	-6
COc1cc(C(CC(=O)N2CCOCC2)c2c(OC)cc(OC)c3ccc(=O)oc23)cc(OC)c1OC (stereo not given)	1	-2	-3	13	-20	i	-7	7
CCOC(=O)c1c(O)c2c(n(Cc3ccco3)c1=O)CCCC2	0	-2	1	.	8	i	-2	-11
O=C1NCCN1c1ccc(CN2CCN(C3CCCCC3)C(CCO)C2)cc1 (stereo not given)	-1	3	2	0	-11	i	4	-1
CCN(CCNC(=O)c1ccc(CSc2nc3ccncc3[nH]2)cc1)c1ccccc1	-5	3	-2	3	-6	i	0	-7
CCOC(=O)C1(CCc2ccccc2)CCN(Cc2c(O)cccc2OC)CC1	-3	-3	-12	19	.	i	-6	13
COc1ccc(C(=O)NC(=S)Nc2cccc(S(=O)(=O)N3CCOCC3)c2)cc1	7	-9	-18	-21	.	i	-2	40
COC(=O)c1cnn2c(C(F)(F)F)cc(-c3ccc(F)cc3)nc12	1	2	-2	-5	-22	i	-7	-13
Cn1c(=O)[nH]c(=O)c2c1nc1n2CCCN1CCc1ccccc1	6	-1	1	.	-13	i	-3	-5
CC1COc2ccccc2N1C(=O)c1ccccc1Cl (stereo not given)	-2	1	2	-9	-13	i	0	-2
CCOc1ccc(CN2CCNC(=O)C2CC(=O)NCCCOc2cccnc2)cc1 (stereo not given)	19	-7	-4	4	-15	i	-2	20
Oc1ccc(-c2nc3ccccc3nc2-c2ccccc2)cc1	-7	-4	-14	5	-12	i	-7	64
O=C(CCN1C(=O)c2ccc([N+](=O)[O-])cc2C1=O)Nc1ccc(O)cc1C(=O)O	6	-2	-1	0	.	i	-7	23
O=C(O)c1ccccc1N=Nc1c(O)[nH]c2ccc([N+](=O)[O-])cc12	44	0	-1	.	-17	i	34	-11
O=C(NCCC(=O)N1CCN(C(=O)c2ccco2)CC1)c1ccc(Br)cc1	.	-1	3	-5	-9	i	.	7
C/C=C/COC(=O)c1[nH]c2c(c1C)C(=O)CC(c1ccco1)C2 (stereo not given)	.	3	-14	-460	-4	i	.	63
Cc1ccc2cc(/C=N/NC(=O)[C@H](C)NC(=O)OC(C)(C)C)c(Cl)nc2c1	12	-1	-4	-24	.	i	6	-8
CCN(c1ccc(OC)cc1)S(=O)(=O)c1nnc(NC(=O)C2CCCCC2)s1	.	1	-2	6	-10	i	.	-4
Cc1ccccc1OCC(=O)N(Cc1cccc(F)c1)C1CCS(=O)(=O)C1 (stereo not given)	-2	-3	-1	13	-5	i	-5	4
CC(=O)C[C@@H](O)CC(=O)[C@@H]1OC(=O)CCCCCc2ccccc21	.	1	7	-17	-5	.	.	.
COc1ccc(/C=C/C(=O)Nc2cccnc2)cc1OC	0	2	-3	2	.	i	-11	4
CC(=O)Nc1ccc(NC(=O)CSc2nnc(NC(=O)c3ccc(Br)o3)s2)cc1	24	0	-5	-13	-16	i	5	28
CN1CCN(C(=O)c2ccc(-c3cccs3)s2)CC1	22	1	-10	-30	-21	+	36	5

Of the compounds above, these contain a COOH group.
SMILES	PABP polyA inh	MT1-MMP act inh	MT1-MMP act inh RFP	HIV Env fusion	Yeast UUG start	Rce1 inhib	eIF4H inh	CSC inhib	others
O=C(O)c1ccccc1C(=O)Nc1nc(-c2ccc3ccccc3c2)cs1	14	3	2	-18	-19	i	-8	9
O=C(CCN1C(=O)c2ccc([N+](=O)[O-])cc2C1=O)Nc1ccc(O)cc1C(=O)O	6	-2	-1	0	.	i	-7	23
O=C(O)c1ccccc1N=Nc1c(O)[nH]c2ccc([N+](=O)[O-])cc12	44	0	-1	.	-17	i	34	-11

More entries:
SMILES	PABP polyA inh	MT1-MMP act inh	MT1-MMP act inh RFP	HIV Env fusion	Yeast UUG start	Rce1 inhib	eIF4H inh	CSC inhib	others
O=CN1CCN(C(=O)c2cc3cc(Cl)ccc3[nH]2)CC1	12	0	1	0	-8	i	-2	.
CC(C)(C)CC(=O)Nc1nnc(SCC(=O)NC2CCCC2)s1	-5	2	-6	2	-19	i	-7	11
O=C(NC1CCCC1)C1CCN(C(=O)Nc2cccc(Cl)c2)CC1	-6	0	-1	0	-7	i	2	.
Cc1nnc(SCC(=O)Nc2ccc3c(c2)OCO3)s1	17	1	1	-10	0	i	-4	.
O=C(O)c1cc(NCc2ccccc2C(F)(F)F)ccc1N1CCOCC1	7	2	5	-26	-10	i	-8	-3
CCN(CC)CCSc1nc2ccc(OC)cc2[nH]1	8	1	5	7	-7	i	0	-2
CCc1ccc(C(=O)COC(=O)CNC(=O)c2ccco2)cc1	2	-1	3	.	.	i	-4	-6
COc1cccc(CNC(=O)C2CCN(S(=O)(=O)c3cccs3)CC2)c1	12	-3	-1	.	-24	i	-10	-12
CCOc1ccc(OCC)c(S(=O)(=O)NCc2ccccn2)c1	-9	4	2	.	-13	i	-4	-1
COc1ccc(OCC(O)CN2CCN(c3ncccn3)CC2)cc1 (stereo not given)	10	5	6	-18	.	i	6	-9
COc1ccc(-n2nnc3c(=O)n(CC(=O)N4CCCC4)cnc32)cc1	-6	-2	2	3	-17	i	-6	-15
C/C(=N\NC(=S)NCc1ccccc1)c1ccc(C)o1	6	3	-1	9	-41	i	15	-1
CCCCCn1c(C)c2c(OCC)cccc(=O)c2c1C	20	-12	-1	13	-9	i	28	4
CCOC(=O)c1ccc(NC2=CC(=O)C(=O)c3ccccc32)cc1	5	-4	-12	.	.	i	-6	-7
COc1ccc(CNC(=O)C2CSC(=O)C2)cc1 (stereo not given)	0	3	0	.	3	i	-8	-9
CNC(=O)C[C@H]1C(=O)N(CCc2ccccc2)C[C@@H]1C	.	-1	5	29	-9	.	.	.
Cc1cc(N2CCOCC2)nc(-c2ccc(Br)cc2)n1	-12	-1	-3	.	-27	i	-10	2
Cc1ccc(Cl)cc1NC(=O)COc1ccccc1	-5	2	0	-28	-19	i	-14	-16
CCC1(c2ccc(F)cc2)NC(=O)N(CC(=O)N2c3ccccc3CC2C)C1=O (stereo not given)	.	2	-4	.	-10	.	.	6
CC(C)/C=N/NC(=O)c1cccc(N2CCCC2=O)c1	-2	3	5	22	13	i	-12	4
CN(C)c1ccc(NC(=O)Cn2c(=O)n(Cc3ccccc3)c(=O)c3ccccc32)cc1	-8	-3	-4	-55	-29	i	-4	-3
Cn1c(COc2ccccc2)nnc1SCCSc1nnc(COc2ccccc2)n1C	-12	5	-4	33	-9	i	-9	-15
COc1ccc(Cl)cc1C(=O)NNC(=O)CNC(=O)c1ccco1	.	0	1	.	-26	.	.	5
COc1cc(/C=N/N(c2ccccc2)c2ccccc2)ccc1O	3	-1	-3	7	-21	i	-7	99*
CC(C)Cn1c(N)c(C=O)c(=O)n(C)c1=O	5	-2	1	-10	-12	i	-2	-1
O=C1c2cccc3cc([N+](=O)[O-])cc(c23)C(=O)N1CC1CCCO1 (stereo not given)	19	-31	1	5	-9	i	32	1

Quoted at random: five records from the list
SMILES	PABP polyA inh	MT1-MMP act inh	MT1-MMP act inh RFP	HIV Env fusion	Yeast UUG start	Rce1 inhib	eIF4H inh	CSC inhib	others
O=C1c2cccc3cc([N+](=O)[O-])cc(c23)C(=O)N1CC1CCCO1 (stereo not given)	19	-31	1	5	-9	i	32	1
CC(C)Cn1c(N)c(C=O)c(=O)n(C)c1=O	5	-2	1	-10	-12	i	-2	-1
COc1cc(/C=N/N(c2ccccc2)c2ccccc2)ccc1O	3	-1	-3	7	-21	i	-7	99*
COc1ccc(Cl)cc1C(=O)NNC(=O)CNC(=O)c1ccco1	.	0	1	.	-26	.	.	5
Cn1c(COc2ccccc2)nnc1SCCSc1nnc(COc2ccccc2)n1C	-12	5	-4	33	-9	i	-9	-15
